Vaccinia inh – blocks a specific stage of Vaccinia orthopoxvirus infection, primary screen, cell-based, single point; Vaccinia-infected cells, mCherry/Venus stage reporter fluorescence; active compounds read low; some inactives read as strong as hits; activity change (mCherry), % (no concentration beside the values); hit rate 0.01% among 89,000; AID 1053133, 2014;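 active means mCherry past -33% and 40 or more points under the early reporter, replicates agreeing; inconclusive means past -33% without that gap or agreement; tested in A549 cells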;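 further: scaled between vehicle wells and reference inhibitor wells; 23 nL library stock went into each well; one replicate is shown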
Vaccinia inh Venus – second read-out of Vaccinia inh, no call of its own (marks repeat the call); activity change (Venus), %; measured here: Venus reporter, other viral stage;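 negative = less Venus signal; first of two replicates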
Starred values were filed as active, the others as inactive; ? = inconclusive; · = not tested or not shown.

SMILES	Vaccinia inh	Vaccinia inh Venus
COCC#Cc1cnc2c(c1)C(=O)N([C@H](C)CO)C[C@H](C)[C@H](CN(C)C(=O)Nc1ccccc1F)O2	11	5
O=C(Cc1cccnc1)N[C@H]1CC[C@H](CCn2cc(-c3ccccc3F)nn2)O[C@@H]1CO	-14	-3
N#C[C@@H]1[C@H](c2ccccc2-c2ccccc2F)[C@H](CO)N1C(=O)Cc1ccccc1	-2	-8
CCCN(C)C[C@@H]1OCCCC[C@@H](C)Oc2ccc(NS(=O)(=O)c3ccc(F)cc3)cc2C(=O)N([C@H](C)CO)C[C@@H]1C	-1	-2
C[C@H](CO)N1C[C@H](C)[C@H](CN(C)C(=O)c2ccccc2F)Oc2ncc(C#Cc3ccc(F)cc3)cc2C1=O	?	·
CCS(=O)(=O)Nc1ccc2c(c1)C(=O)N(C)C[C@H](OC)[C@@H](C)CN[C@@H](C)CO2	13	12
CN(C)CC(=O)N1CC2(C1)[C@H](c1ccccc1)[C@@H](CO)N2C(=O)C1CCCC1	-8	3
C[C@H]1ON(c2ccccc2)[C@@H](c2ccccc2)[C@@H]1C(=O)N1C(=O)OC[C@@H]1c1ccccc1	0	-4
C[C@@H]1CN([C@H](C)CO)C(=O)c2cc(/C=C/c3ccccc3)cnc2O[C@H]1CN(C)C(=O)c1ccccc1	-34	-25
C[C@@H]1CN([C@H](C)CO)C(=O)c2cc(NS(C)(=O)=O)ccc2O[C@H]1CN(C)C(=O)Nc1ccc(F)cc1	1	1

Given bar-delimited: part of the list above
canonical_smiles | Vaccinia inh | Vaccinia inh Venus
CCCN(C)C[C@@H]1OCCCC[C@@H](C)Oc2ccc(NS(=O)(=O)c3ccc(F)cc3)cc2C(=O)N([C@H](C)CO)C[C@@H]1C | -1 | -2
C[C@H]1ON(c2ccccc2)[C@@H](c2ccccc2)[C@@H]1C(=O)N1C(=O)OC[C@@H]1c1ccccc1 | 0 | -4
O=C(Cc1cccnc1)N[C@H]1CC[C@H](CCn2cc(-c3ccccc3F)nn2)O[C@@H]1CO | -14 | -3
C[C@@H]1CN([C@H](C)CO)C(=O)c2cc(NS(C)(=O)=O)ccc2O[C@H]1CN(C)C(=O)Nc1ccc(F)cc1 | 1 | 1
C[C@H](CO)N1C[C@H](C)[C@H](CN(C)C(=O)c2ccccc2F)Oc2ncc(C#Cc3ccc(F)cc3)cc2C1=O | ? | ·
C[C@@H]1CN([C@H](C)CO)C(=O)c2cc(/C=C/c3ccccc3)cnc2O[C@H]1CN(C)C(=O)c1ccccc1 | -34 | -25
COCC#Cc1cnc2c(c1)C(=O)N([C@H](C)CO)C[C@H](C)[C@H](CN(C)C(=O)Nc1ccccc1F)O2 | 11 | 5

Later entries:
SMILES	Vaccinia inh	Vaccinia inh Venus
COc1ccc2c3c([nH]c2c1)[C@@H](CO)N(C(=O)CC1CC1)CC31CCN(C(=O)c2ccccc2)CC1	6	6
O=C(C[C@H]1C=C[C@H](NC(=O)Nc2ccc(C(F)(F)F)cc2)[C@H](CO)O1)NCc1ccccn1	-3	-4
COc1ccc(S(=O)(=O)N(C)C[C@@H]2OCCCC[C@H](C)Oc3ccc(NS(=O)(=O)c4c(C)noc4C)cc3C(=O)N([C@H](C)CO)C[C@H]2C)cc1	?	·
CCS(=O)(=O)N1CCCCN2[C@H](CO)[C@H](c3ccc(C#Cc4ccccc4OC)cc3)[C@H]2C1	-34	-29
CS(=O)(=O)N1CC(=O)N2[C@H](CO)[C@H](c3ccc(C#Cc4ccc(F)cc4)cc3)[C@@H]2C1	-21	-16
COc1cccc(NC(=O)N(C)C[C@@H]2OCc3cnnn3CCCC(=O)N([C@@H](C)CO)C[C@@H]2C)c1	8	6
COc1ccccc1S(=O)(=O)N(C)C[C@@H]1OCc2ccccc2-c2ccccc2C(=O)N([C@H](C)CO)C[C@@H]1C	5	-4
CCO[C@H]1OC(C(N)=O)=C[C@@H](C2CCCCC2)[C@@H]1CCCO	1	6
COc1ccccc1-c1ccc2n(c1=O)C[C@H]1[C@H](CO)[C@@H](C(=O)Nc3nccs3)N(C)[C@@H]21	20	12
O=C1CN(S(=O)(=O)c2cccc(F)c2)C[C@@H]2[C@H](c3ccc(-c4ccccc4)cc3)[C@H](CO)N12	-12	-8
COc1ccc(CN(C)C[C@@H]2OCCCC[C@@H](C)Oc3ccc(NS(=O)(=O)c4ccc(C)cc4)cc3C(=O)N([C@H](C)CO)C[C@H]2C)cc1	?	·
COc1ccccc1-c1ccc2c(c1)O[C@@H](CN(C)CC1CCCC1)[C@H](C)CN([C@@H](C)CO)S2(=O)=O	-18	-12
CN1C(=O)c2cc(NC(=O)C3CCOCC3)ccc2OC[C@H]2O[C@@H](CC(=O)NCc3ccc4c(c3)OCO4)CC[C@H]21	9	14
CO[C@H]1CN(C)C(=O)c2ccc(NS(=O)(=O)c3ccc(Cl)cc3)cc2OC[C@@H](C)N(C)C[C@H]1C	-2	2
N#C[C@@H]1[C@@H](c2ccccc2-c2ccccc2F)[C@H](CO)N1C(=O)Cc1ccccc1	-7	-3
COc1ccc(S(=O)(=O)Nc2ccc3c(c2)C(=O)N([C@H](C)CO)C[C@@H](C)[C@H](CN(C)Cc2ccncc2)O3)cc1	26	12
O=C(N[C@@H]1CC[C@@H](CCNC(=O)C2CCCCC2)O[C@H]1CO)c1ccccn1	-6	9
C[C@H]1CN([C@@H](C)CO)C(=O)c2cc(-c3ccc(C#N)cc3)cnc2O[C@@H]1CN(C)C(=O)CN(C)C	25	18
C[C@H](CO)N1C[C@H](C)[C@H](CN(C)C(=O)c2cccnc2)Oc2cc(/C=C/c3ccccc3)ccc2S1(=O)=O	6	-1
COc1cccc(C(=O)Nc2ccc3c(c2)OC[C@H](C)N(C(C)=O)C[C@H](C)[C@H](OC)CN(C)C3=O)c1	18	14
O=C(Nc1ccccc1)N1C[C@@H]2[C@H](c3ccccc31)[C@H](CO)N2Cc1cocn1	9	-2
COCC(=O)Nc1ccc2c(c1)C(=O)N(C)C[C@H](OC)[C@H](C)CN(CC1CC1)[C@H](C)CO2	0	-4
CCN1[C@@H]2Cn3c(ccc(C4=CCCCC4)c3=O)[C@H]1[C@@H](C(=O)NCCOC)[C@@H]2CO	-6	11
Cc1noc(C)c1NC(=O)N(C)C[C@@H]1Oc2ccc(NC(=O)Nc3ccc(C(F)(F)F)cc3)cc2C(=O)N([C@@H](C)CO)C[C@H]1C	0	4
CCS(=O)(=O)Nc1ccc2c(c1)C(=O)N(C)C[C@@H](OC)[C@@H](C)CN(C(=O)NC(C)C)[C@H](C)CO2	14	11
O=C(c1cccnc1)N1CC(=O)N2[C@@H](CO)[C@@H](c3ccc(-c4cccnc4)cc3)[C@@H]2C1	13	6
O=C(NC1CCCC1)N1CC2(C1)[C@H](c1ccccc1)[C@H](CO)N2CC1CC1	4	9
CO[C@@H](CN(C)S(=O)(=O)c1ccc(C)cc1)[C@@H](C)CN([C@@H](C)CO)S(=O)(=O)c1cccc(Cl)c1	?	·
CN1CCN(C(=O)[C@H]2[C@H](CO)[C@H]3Cn4c(ccc(/C=C/c5ccccc5)c4=O)[C@H]3N2CC2CC2)CC1	-17	-7
C[C@@H]1CN([C@@H](C)CO)C(=O)c2cc(NC(=O)Nc3ccc(F)cc3)ccc2O[C@@H]1CN(C)C(=O)Nc1ccc(F)cc1	10	8
Cc1ccc(S(=O)(=O)N[C@H]2C=C[C@@H](CC(=O)NCc3ccc(Cl)c(Cl)c3)O[C@@H]2CO)cc1	7	-4
O=C(Cc1ccccc1)N1CC[C@H]2[C@H](CO)Nc3ccc(-c4cccc(F)c4)cc3[C@H]21	?	·
O=C(Nc1ccccc1)Nc1ccc2c(c1)[C@H]1C[C@H](CC(=O)N3CCCCC3)O[C@@H](CO)[C@H]1O2	-5	-3
CO[C@H]1CN(C)C(=O)c2cc(NC(=O)C3CCCCC3)ccc2OC[C@@H](C)N(C(=O)c2ccccc2)C[C@@H]1C	10	11
Cc1cc(C(=O)Nc2cccc3c2O[C@H](CN(C)Cc2ccccc2)[C@@H](C)CN([C@H](C)CO)C3=O)n(C)n1	8	2
C[C@H](CO)N1C[C@H](C)[C@H](CN(C)C(=O)C2CCC2)Oc2ncc(C#CC3CCCC3)cc2C1=O	8	-2
Cc1nn(C)cc1NC(=O)C[C@@H]1CC[C@@H]2[C@H](COc3ccc(NC(=O)C4CCC4)cc3C(=O)N2C)O1	4	-2
COc1ccc(NC(=O)Nc2ccc3c(c2)C(=O)N([C@@H](C)CO)C[C@@H](C)[C@H](CN(C)C(=O)NC(C)C)OCCCC[C@H](C)O3)cc1	-1	-2
C[C@@H]1CN([C@H](C)CO)C(=O)Cc2cc(NC(=O)CCCCCC(=O)Nc3ccccc3N)ccc2O[C@H]1CN(C)C(=O)Nc1ccc(F)cc1	15	10
N[C@@H]1CC[C@@H](CCn2cc(C3CCCCC3)nn2)O[C@H]1CO	-1	5
CCCc1cn(CC[C@H]2CC[C@@H](NS(=O)(=O)c3ccccc3Cl)[C@H](CO)O2)nn1	5	20
O=C(C[C@@H]1C[C@H]2c3cc(NC(=O)c4ccc5c(c4)OCO5)ccc3O[C@H]2[C@H](CO)O1)NC1CCCCC1	-25	-15
COc1ccc(CN(C)C[C@H]2Oc3c(NC(=O)Nc4ccc5c(c4)OCO5)cccc3C(=O)N([C@H](C)CO)C[C@H]2C)cc1	22	21
COc1cccc(-c2cnc3c(c2)C(=O)N([C@H](C)CO)C[C@H](C)[C@@H](CN(C)Cc2ccccc2)O3)c1	-33	-29
COCCNC(=O)C[C@@H]1CC[C@H](NC(=O)NC2CCCC2)[C@@H](CO)O1	-17	9
COc1ccc(S(=O)(=O)N(C)C[C@@H]2Oc3ncc(-c4cc5ccccc5o4)cc3C(=O)N([C@H](C)CO)C[C@@H]2C)cc1	?	·
COc1ccc(CN(C)C[C@@H]2Oc3c(NS(=O)(=O)c4ccccc4)cccc3C(=O)N([C@H](C)CO)C[C@H]2C)cc1	10	8
COc1ccc(S(=O)(=O)N(C)C[C@H]2Oc3ccc(NC(=O)CCC(F)(F)F)cc3CC(=O)N([C@@H](C)CO)C[C@@H]2C)cc1	4	2
CN1C(=O)c2cc(NC(=O)C3CCC3)ccc2OC[C@H]2O[C@H](CC(=O)NCC3CCCCC3)CC[C@H]21	3	7
C[C@H](CO)N1C[C@H](C)[C@@H](CN(C)C(=O)NC2CCCCC2)Oc2ccc(NS(=O)(=O)c3cccs3)cc2C1=O	9	1

Sorted by heavy-atom count (rising): some entries from above.
SMILES	Vaccinia inh	Vaccinia inh Venus
O=C(N[C@@H]1CC[C@@H](CCNC(=O)C2CCCCC2)O[C@H]1CO)c1ccccn1	-6	9
Cc1ccc(S(=O)(=O)N[C@H]2C=C[C@@H](CC(=O)NCc3ccc(Cl)c(Cl)c3)O[C@@H]2CO)cc1	7	-4
COc1cccc(C(=O)Nc2ccc3c(c2)OC[C@H](C)N(C(C)=O)C[C@H](C)[C@H](OC)CN(C)C3=O)c1	18	14

(list continues)
SMILES	Vaccinia inh	Vaccinia inh Venus
C[C@H]1CN([C@@H](C)CO)C(=O)c2cccc(NS(=O)(=O)c3ccc(Cl)cc3)c2O[C@H]1CN(C)Cc1ccccc1	-9	-8
O=C(C[C@@H]1CC[C@H]2NC[C@@H](O)COC[C@@H]2O1)NCc1ccc(Oc2ccccc2)cc1	4	2
CCCN1[C@@H]2c3ccc(-c4ccc(OC)cc4)c(=O)n3C[C@H]1[C@H](CO)[C@H]2C(=O)NCC	8	3
CCC(=O)N(C)C[C@H]1Oc2ncc(C#Cc3ccncc3)cc2C(=O)N([C@H](C)CO)C[C@@H]1C	14	17
C[C@H]1CN([C@@H](C)CO)C(=O)c2cc(NC(=O)Cc3cn(C)c4ccccc34)ccc2O[C@@H]1CN(C)S(=O)(=O)c1ccccc1	-12	-4
Cc1ccc(S(=O)(=O)N(C)C[C@@H]2Oc3ccc(NC(=O)NC4CCCCC4)cc3CC(=O)N([C@@H](C)CO)C[C@H]2C)cc1	?	·
C[C@@H](O)C#Cc1ccc2c(c1)O[C@H](CN(C)Cc1ccccn1)[C@@H](C)CN([C@@H](C)CO)S2(=O)=O	22	12
CCCC#Cc1ccc([C@H]2[C@H]3CN(C(=O)Nc4cccc(F)c4)CC(=O)N3[C@H]2CO)cc1	?	·
C[C@H](CO)N1C[C@H](C)[C@@H](CN(C)Cc2ccc(Cl)c(Cl)c2)OCCCC[C@H](C)Oc2ccc(NC(=O)c3ccncc3)cc2C1=O	?	·
O=C(C[C@@H]1CC[C@@H]2[C@H](COC[C@H](O)CN2C(=O)C2CCOCC2)O1)NCc1ccncc1	23	25
C[C@@H]1CN([C@@H](C)CO)S(=O)(=O)c2ccc(C#Cc3cccnc3)cc2O[C@H]1CN(C)C(=O)C1CC1	-12	-11
CO[C@H]1CN(C)C(=O)c2ccc(NC(=O)c3ccccc3)cc2OC[C@H](C)N(CC2CC2)C[C@@H]1C	-9	-14
C[C@H](CO)N1C[C@H](C)[C@@H](CN(C)C(=O)NC2CCCCC2)Oc2ccc(NS(=O)(=O)c3cn(C)cn3)cc2C1=O	16	14
O=C(C[C@H]1C=C[C@@H](NC(=O)CCN2CCCCC2)[C@H](CO)O1)Nc1ccc(-c2ccccc2)cc1	?	·
C=CCOC(=O)c1oc(COC[C@@H](NC(=O)N(C)Cc2ccccc2)c2ccccc2)c(C(=O)OC)c1C(=O)OC	-10	-15
C[C@@H]1CN([C@@H](C)CO)C(=O)Cc2cc(NS(C)(=O)=O)ccc2O[C@H]1CN(C)S(C)(=O)=O	-6	12
COc1ccc2c3c([nH]c2c1)[C@@H](CO)N(Cc1ccc(F)cc1)CC31CCN(C(=O)NC(C)C)CC1	18	22
CCC(=O)N(C)C[C@H]1Oc2cc(C#CC3(O)CCCC3)ccc2S(=O)(=O)N([C@@H](C)CO)C[C@@H]1C	6	11
O=C(C[C@@H]1CC[C@@H]2[C@H](COC[C@H](O)CN2S(=O)(=O)c2ccc(F)cc2)O1)N1CCc2ccccc2C1	-23	-16
COc1ccccc1CNC(=O)C[C@H]1C[C@@H]2c3cc(NC(=O)C4CCC4)ccc3O[C@@H]2[C@H](CO)O1	3	-2
C[C@H]1CCCCO[C@@H](CN(C)S(=O)(=O)c2cn(C)cn2)[C@@H](C)CN([C@@H](C)CO)C(=O)c2cc(NS(=O)(=O)c3ccccc3)ccc2O1	10	3

Source: PubChem

Not all compounds are listed (hit frequency here may not be typical).
